High-throughput results from PubChem.
Sa growth 42C = blocks Staphylococcus aureus growth; actives 0.53% (n = 170,000); S. aureus RN4220 growth, OD600, 20 h, 42 °C; active compounds read low; relative growth, % (concentration not given with the values); AID 720641;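 active = growth at 42 °C up to 50% and 20 or more points under that at 30 °C, or under 10% at both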;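 also: 300 nL library stock went into each well; scaled to the means of positive and negative controls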
HCMV NEC inh = disrupts HCMV UL50-UL53 complex binding. HTRF UL50-UL53 interaction, normalized percent inhibition. inhibition, % (no concentration beside the values). actives 0.15% (n = 190,000). AID 1918969;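 active = both replicates at 50% or more, plus weaker picks with an unusually low signal ratio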;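 also: stock transfer was 100 nL into about 20 µL; 0% = negative control wells and 100% = wells with untagged competitor protein; inactives centre near -12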
GIV-Gai inh = inhibitors of GIV GBA-motif binding to rat Galpha-i3; AID 1224905; P08753; actives 0.42% (n = 210,000); Galpha-i3/FITC-GIV peptide fluorescence polarization, 90 min; active compounds read low; scaled: aluminum fluoride 0%, vehicle 100%; percent of control (FP), % (no concentration beside the values);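 active = replicate mean at 85% of control or lower, very high polarization wells dropped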;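 also: wells of about 15 µL received 100 nL stock; the first replicate is given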
Target sequence (P08753 whole entry, looked up): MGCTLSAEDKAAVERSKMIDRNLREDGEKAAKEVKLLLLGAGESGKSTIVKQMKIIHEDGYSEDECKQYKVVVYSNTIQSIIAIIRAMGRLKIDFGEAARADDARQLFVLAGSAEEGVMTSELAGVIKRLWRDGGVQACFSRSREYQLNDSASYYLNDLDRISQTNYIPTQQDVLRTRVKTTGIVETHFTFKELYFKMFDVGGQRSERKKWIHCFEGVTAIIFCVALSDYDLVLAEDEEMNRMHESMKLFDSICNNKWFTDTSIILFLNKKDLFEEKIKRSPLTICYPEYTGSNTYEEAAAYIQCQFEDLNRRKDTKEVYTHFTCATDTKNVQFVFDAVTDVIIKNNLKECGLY
Sa growth 42C second temp = also measured in Sa growth 42C; calls as there; relative growth, %; measured here: growth at 30 °C;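 optical density after 20 h as mean of two plates; 100% = untreated growth and lower means inhibition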
* hit, by the source's call; & = joins results of further samples.

The opening 2 records (preview)
Results for Cc1ccc2occ(C3Nc4cc(C)c(C)cc4NC4=C3C(=O)CC(C)(C)C4)c(=O)c2c1 (stereo not given) ?
HCMV NEC inh: -18; GIV-Gai inh: 105

Results for CC(C)C(=O)Nc1ccc(CN2CCOCC2)cc1 ?
Sa growth 42C: 88; HCMV NEC inh: -16; Sa growth 42C second temp: 93

The list itself (from the top)
Results for Cc1ccc2occ(C3Nc4cc(C)c(C)cc4NC4=C3C(=O)CC(C)(C)C4)c(=O)c2c1 (stereo not given) ?
HCMV NEC inh: -18; GIV-Gai inh: 105

Results for CC(C)C(=O)Nc1ccc(CN2CCOCC2)cc1 ?
Sa growth 42C: 88; HCMV NEC inh: -16; Sa growth 42C second temp: 93

How did COc1cccc(-c2noc(C(C)Oc3ccccc3)n2)c1 (stereo not given) do in these assays?
Sa growth 42C: 105; GIV-Gai inh: 107; Sa growth 42C second temp: 92

How did Cc1ccc(NS(=O)(=O)c2c(C)nc3sc4ccccc4n3c2=O)cc1Cl do in these assays?
HCMV NEC inh: -34; GIV-Gai inh: 99

How did CCCCN1C(=O)/C(=C(\C#N)C(N)=O)c2ccccc21 do in these assays?
Sa growth 42C: 60; HCMV NEC inh: -3; Sa growth 42C second temp: 14

What do the screens show for `Cc1ccc(Cn2ccn(CC(=O)Nc3c(C)cc(C)cc3C)c(=O)c2=O)cc1`?
Sa growth 42C: 106; HCMV NEC inh: -4; GIV-Gai inh: 96; Sa growth 42C second temp: 75

What do the screens show for `CCCOc1ccccc1C1CC(=O)Nc2n[nH]c(C)c21` (stereo not given)?
HCMV NEC inh: -13; GIV-Gai inh: 100

Results for COc1ccc(C(=O)Nc2nnc(SCc3cc(=O)c4cc(C)cc(C)c4[nH]3)s2)cc1 ?
Sa growth 42C: 106; GIV-Gai inh: 102; Sa growth 42C second temp: 89

How did CCc1nc(-c2cc(S(=O)(=O)NCC(=O)NC3CCCCC3)c(C)s2)no1 do in these assays?
HCMV NEC inh: -10; GIV-Gai inh: 107

Results for CN(CC(=O)NC1CCCC1)S(=O)(=O)c1ccc2nc(-c3ccccc3)[nH]c2c1 ?
HCMV NEC inh: -7; GIV-Gai inh: 110

How did CCCCN1C(=O)C(O)(c2c[nH]c3ccccc23)c2cc(Br)ccc21 (stereo not given) do in these assays?
Sa growth 42C: 86; HCMV NEC inh: -12; GIV-Gai inh: 103; Sa growth 42C second temp: 75

Results for CCC(C)NC(=O)Cn1c(=O)n(-c2ccccc2)c(=O)c2c3c(sc21)CCCC3 (stereo not given) ?
Sa growth 42C: 123; HCMV NEC inh: -6; GIV-Gai inh: 100; Sa growth 42C second temp: 85

How did Cc1cccc(CN2C(=O)/C(=C\c3ccc(C(=O)N4CCCC4)cc3)Oc3ccccc32)c1 do in these assays?
Sa growth 42C: 102; GIV-Gai inh: 103; Sa growth 42C second temp: 85

How did COc1ccccc1Nc1ccc(N=Cc2ccc(F)c(F)c2)cc1 do in these assays?
Sa growth 42C: 91; HCMV NEC inh: 3; Sa growth 42C second temp: 77

What do the screens show for `Brc1ccccc1-c1noc(CSc2ccc(-c3ccccc3)nn2)n1`?
HCMV NEC inh: -8; GIV-Gai inh: 104

What do the screens show for `CSc1cccc(NC(=O)CSCc2ccc(Cl)cc2)c1`?
Sa growth 42C: 79; HCMV NEC inh: -15; GIV-Gai inh: 102; Sa growth 42C second temp: 71

How did Cc1ccc(CN2CCC(CNC(=O)c3cnn(-c4ccccc4Cl)c3C3CCN(C(=O)OC(C)(C)C)CC3)CC2)cc1 do in these assays?
Sa growth 42C: 100; GIV-Gai inh: 111; Sa growth 42C second temp: 77

Results for Cc1ccc2oc(=O)n(CCCOc3ccccc3Cl)c2c1 ?
Sa growth 42C: 90; HCMV NEC inh: -13; GIV-Gai inh: 95; Sa growth 42C second temp: 88

What do the screens show for `O=C(CCN1C(=O)c2ccccc2C1=O)Nc1ccc(S(=O)(=O)Nc2ncccn2)cc1`?
Sa growth 42C: 80; HCMV NEC inh: -36; GIV-Gai inh: 101; Sa growth 42C second temp: 81

What do the screens show for `CC1(C)Cc2c(nn(-c3ccccc3)c(=O)c2C#N)CO1`?
Sa growth 42C: 82; HCMV NEC inh: -62; GIV-Gai inh: 97; Sa growth 42C second temp: 84

Results for CN1C(=O)c2ccc(C(=O)O)cc2CC1c1ccccc1 (stereo not given) ?
Sa growth 42C: 79; HCMV NEC inh: -21; Sa growth 42C second temp: 96

How did Cc1sc2ncnc(NC3CC(C)(C)NC(C)(C)C3)c2c1C do in these assays?
HCMV NEC inh: -22; GIV-Gai inh: 104

How did COc1ccc(C2C3C(=O)N(Cc4ccccc4)C(=O)C3ON2c2ccccc2)cc1O (stereo not given) do in these assays?
Sa growth 42C: 93; HCMV NEC inh: -2; GIV-Gai inh: 95; Sa growth 42C second temp: 87

Results for COc1ccc(-c2noc(CC(=O)Nc3ccc(C)c(F)c3)n2)cc1 ?
Sa growth 42C: 129; GIV-Gai inh: 103; Sa growth 42C second temp: 87

How did O=C1CCC(=O)N1N1C(=O)C2C3c4ccccc4C(c4ccccc43)C2C1=O (stereo not given) do in these assays?
Sa growth 42C: 96; HCMV NEC inh: -9; GIV-Gai inh: 103; Sa growth 42C second temp: 98

What do the screens show for `CCSc1nncc(-c2ccccc2)n1`?
Sa growth 42C: 118; HCMV NEC inh: -58; GIV-Gai inh: 108; Sa growth 42C second temp: 48

What do the screens show for `O=C(Nc1ccc(C(F)(F)F)cc1)N1C2CCC1CC(O)(c1cccnc1)C2` (stereo not given)?
Sa growth 42C: 66; HCMV NEC inh: -6; GIV-Gai inh: 103; Sa growth 42C second temp: 58

How did CCC(=O)/C=C1/Sc2ccc(OC)cc2N1CC do in these assays?
Sa growth 42C: 89; HCMV NEC inh: -18; GIV-Gai inh: 108; Sa growth 42C second temp: 70

Results for CCN(CCCNC(=O)c1cc(Nc2ccccc2OC)nc2ccccc12)c1cccc(C)c1 ?
Sa growth 42C: 111; HCMV NEC inh: 8; GIV-Gai inh: 106; Sa growth 42C second temp: 86

Results for CCC12CCCN3CCc4c(n(c5ccccc45)C(=O)C1)C32 (stereo not given) ?
Sa growth 42C: 95; HCMV NEC inh: -22; GIV-Gai inh: 110; Sa growth 42C second temp: 84

Results for FC(F)(F)Oc1ccc(-n2[nH]nnc2=S)cc1 ?
Sa growth 42C: 92; HCMV NEC inh: 2; GIV-Gai inh: 101; Sa growth 42C second temp: 76

What do the screens show for `CCS(=O)(=O)Nc1cc(C(C)(C)C)ccc1OC`?
Sa growth 42C: 114; HCMV NEC inh: -38; GIV-Gai inh: 101; Sa growth 42C second temp: 98

How did O=c1oc2ccccc2c(O)c1C=NCc1ccccn1 do in these assays?
Sa growth 42C: 94; HCMV NEC inh: -13; Sa growth 42C second temp: 92

Results for O=C(CCNC(=O)c1ccccc1Cl)Nc1nccs1 ?
Sa growth 42C: 102; HCMV NEC inh: -12; Sa growth 42C second temp: 95

What do the screens show for `O=C(NC1=NCCS1)C1COc2ccccc2O1` (stereo not given)?
Sa growth 42C: 105; HCMV NEC inh: -2; Sa growth 42C second temp: 100

How did CC1CC(C)CN(C(=O)c2ccc(CSc3nc4ccncc4[nH]3)cc2)C1 (stereo not given) do in these assays?
Sa growth 42C: 101; GIV-Gai inh: 103; Sa growth 42C second temp: 83

What do the screens show for `O=C(CNc1nnnn1-c1ccccc1)Nc1ccc(F)c(F)c1F`?
Sa growth 42C: 88; HCMV NEC inh: -29; Sa growth 42C second temp: 88

What do the screens show for `NC(=O)c1ccc(-n2nnnc2Oc2ccccc2C(=O)N2CCOCC2)cc1`?
Sa growth 42C: 125; HCMV NEC inh: 5; GIV-Gai inh: 105; Sa growth 42C second temp: 106

Results for CC(C)NC(=O)COn1nnc2ccc(Cl)cc21 ?
Sa growth 42C: 123; HCMV NEC inh: -18; Sa growth 42C second temp: 89

How did CCc1ccc(NC(=O)c2cc(-c3ccccn3)n[nH]2)cc1 do in these assays?
HCMV NEC inh: -23; GIV-Gai inh: 103

What do the screens show for `CC1C(c2ccccc2)OCCN1C(=O)CCN1C(=O)c2ccccc2C1=O` (stereo not given)?
Sa growth 42C: 83; HCMV NEC inh: -34; GIV-Gai inh: 103; Sa growth 42C second temp: 94

Results for C/C=C/C(=O)NCC1OCCc2ccccc21 (stereo not given) ?
Sa growth 42C: 94; GIV-Gai inh: 97; Sa growth 42C second temp: 83

How did C[C@H]1C[C@@H]2[C@H]([C@@H](O)C[C@@]3(C)[C@H]2CC[C@]3(O)C(=O)CO)[C@@]2(C)C=CC(=O)C=C12 do in these assays?
Sa growth 42C: 93; HCMV NEC inh: -40&-16&-51; GIV-Gai inh: 95; Sa growth 42C second temp: 83

What do the screens show for `COc1ccc(C2C(C(=O)Nc3ccccc3)=C(C)Nc3nc(-c4ccccc4)nn32)cc1OC` (stereo not given)?
Sa growth 42C: 120; HCMV NEC inh: -29; GIV-Gai inh: 109; Sa growth 42C second temp: 90

How did O=C1CC(c2ccc(Cl)cc2)N=C(NC(=O)c2ccccc2)N1 (stereo not given) do in these assays?
Sa growth 42C: 90; GIV-Gai inh: 108; Sa growth 42C second temp: 96

How did O=C(NCCSCc1c(F)cccc1Cl)C1CCN(S(=O)(=O)Cc2ccccc2)CC1 do in these assays?
Sa growth 42C: 107; HCMV NEC inh: -15; GIV-Gai inh: 100; Sa growth 42C second temp: 88

How did CCc1ccc2occ(CC(=O)Nc3cccnc3)c2c1 do in these assays?
HCMV NEC inh: -25; GIV-Gai inh: 103

What do the screens show for `O=S(=O)(c1c(Cl)cc(C(F)(F)F)cc1Cl)N1CCOCC1`?
Sa growth 42C: 108; HCMV NEC inh: -4; GIV-Gai inh: 100; Sa growth 42C second temp: 85

Part of the list above in order of SMILES length, highest first:
How did C[C@H]1C[C@@H]2[C@H]([C@@H](O)C[C@@]3(C)[C@H]2CC[C@]3(O)C(=O)CO)[C@@]2(C)C=CC(=O)C=C12 do in these assays?
Sa growth 42C: 93; HCMV NEC inh: -40&-16&-51; GIV-Gai inh: 95; Sa growth 42C second temp: 83

What do the screens show for `O=S(=O)(c1c(Cl)cc(C(F)(F)F)cc1Cl)N1CCOCC1`?
Sa growth 42C: 108; HCMV NEC inh: -4; GIV-Gai inh: 100; Sa growth 42C second temp: 85

How did CCc1ccc(NC(=O)c2cc(-c3ccccn3)n[nH]2)cc1 do in these assays?
HCMV NEC inh: -23; GIV-Gai inh: 103

Results for CC(C)NC(=O)COn1nnc2ccc(Cl)cc21 ?
Sa growth 42C: 123; HCMV NEC inh: -18; Sa growth 42C second temp: 89

Next section.
What do the screens show for `COc1cc2c3c(c1OC)C1(C=CC(=O)C=C1)CC3N(C(=O)CCC(=O)O)CC2` (stereo not given)?
Sa growth 42C: 85; HCMV NEC inh: -12; GIV-Gai inh: 93; Sa growth 42C second temp: 86

How did CN(C)CCCNc1oc(-c2ccccc2)nc1C#N do in these assays?
Sa growth 42C: 94; HCMV NEC inh: -18; Sa growth 42C second temp: 95

How did CC(C)(C)c1ccc(Oc2nc3ccccn3c(=O)c2/C=C(\C#N)c2nc3ccccc3s2)cc1 do in these assays?
Sa growth 42C: 81; HCMV NEC inh: -112; GIV-Gai inh: 95; Sa growth 42C second temp: 73

What do the screens show for `O=C(NC1CCCC1)c1ccc2nc(-c3ccco3)c(-c3ccco3)nc2c1`?
Sa growth 42C: 84; HCMV NEC inh: -23; GIV-Gai inh: 106; Sa growth 42C second temp: 49

What do the screens show for `Cc1ccc(NC(=O)c2nnc(CCC(=O)NCc3ccccn3)s2)cc1`?
HCMV NEC inh: -12; GIV-Gai inh: 95

What do the screens show for `CSc1nn(-c2ccc(C(=O)OCC(=O)N(C)C)cc2)c(=S)s1`?
Sa growth 42C: 107; HCMV NEC inh: -22; Sa growth 42C second temp: 97

What do the screens show for `COc1cccc(CNC(=O)c2nnc(CS(=O)(=O)c3ccccc3)o2)c1`?
Sa growth 42C: 79; GIV-Gai inh: 100; Sa growth 42C second temp: 85

How did Cc1cc(NC(=O)COCC(=O)O)ccc1-n1cnnn1 do in these assays?
Sa growth 42C: 88; GIV-Gai inh: 104; Sa growth 42C second temp: 91
